Assay outcomes (PubChem)
Ecoli rRNA inh: reduced GFP signal of wild-type E. coli, primary screen, bacterial rRNA inhibitor project, GFP/RFP fluorescence, OD600, single point | E. coli WT GFP vs humanized-ribosome RFP mutants, 24 h; hits give low values; DMSO median 0, no signal -100 | GFP signal change (wild-type ribosome), % (test concentration not listed) | hit rate 1.6% among 350,000 | AID 720706, 2013;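 active = significant combined selectivity score with lowered wild-type GFP, culture density cut under 30%, mutant RFP and density less affected; inactive = any of these conditions unmet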; note: one replicate is shown; some compounds called inactive have numbers as strong as hits
T cruzi inh: inhibitors of intracellular T. cruzi growth, primary screen, luminescence, NIH3T3 host cells; T. cruzi beta-gal in NIH3T3, 90 h; inhibition, % (no concentration beside the values); hit rate 1.4% among 300,000; AID 1885, 2009;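 active = mean inhibition across valid replicates above about 55%, limit read from the data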;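 note: signal also drops with host cell toxicity which is not excluded here; 0% = plate median of DMSO wells and 100% = zero luminescence signal; higher percent means less beta-gal luminescence so fewer parasites; stock transfer was 50 nL into about 50 µL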
FGF22 binding: binders of human FGF22 protein, primary screen, FGF22 synaptogenesis inhibitor project, biophysical, thermal shift, single point | calls only at 9.99 µM | AID 651658, 2012 | recombinant FGF22 thermal shift, SYPRO orange fluorescence; percent of sucrose octasulfate shift, DMSO zero | hit rate 1.5% among 340,000 | Fibroblast growth factor 22 (Homo sapiens), Q9HCT0;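 active = melting point raised past a set limit in the mean and every replicate; three in four hits are not shown here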
Target sequence (Q9HCT0 whole entry, looked up): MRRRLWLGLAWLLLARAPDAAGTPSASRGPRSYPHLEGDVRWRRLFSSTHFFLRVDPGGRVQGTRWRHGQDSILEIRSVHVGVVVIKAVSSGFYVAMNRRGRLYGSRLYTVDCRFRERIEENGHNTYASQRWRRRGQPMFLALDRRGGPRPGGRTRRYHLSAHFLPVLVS
MLL AF4-AF9 inh: inhibitors of AF4 peptide binding to AF9, primary screen, biochemical, AlphaScreen, biotin-AF4 peptide, FLAG-AF9, single point. Protein AF-9 (Homo sapiens), P42568. hit rate 0.47% among 350,000. inhibition, % at 10 µM. AID 651704, 2012;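 active = every replicate reaching a set inhibition limit, whatever the replicate mean, cut at about 25% in these data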;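 note: 0% = plate neutral control median and 100% = total signal loss; the record names both 10 and 1 µM as test concentration; the first replicate is given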
Target sequence (P42568 whole entry, looked up): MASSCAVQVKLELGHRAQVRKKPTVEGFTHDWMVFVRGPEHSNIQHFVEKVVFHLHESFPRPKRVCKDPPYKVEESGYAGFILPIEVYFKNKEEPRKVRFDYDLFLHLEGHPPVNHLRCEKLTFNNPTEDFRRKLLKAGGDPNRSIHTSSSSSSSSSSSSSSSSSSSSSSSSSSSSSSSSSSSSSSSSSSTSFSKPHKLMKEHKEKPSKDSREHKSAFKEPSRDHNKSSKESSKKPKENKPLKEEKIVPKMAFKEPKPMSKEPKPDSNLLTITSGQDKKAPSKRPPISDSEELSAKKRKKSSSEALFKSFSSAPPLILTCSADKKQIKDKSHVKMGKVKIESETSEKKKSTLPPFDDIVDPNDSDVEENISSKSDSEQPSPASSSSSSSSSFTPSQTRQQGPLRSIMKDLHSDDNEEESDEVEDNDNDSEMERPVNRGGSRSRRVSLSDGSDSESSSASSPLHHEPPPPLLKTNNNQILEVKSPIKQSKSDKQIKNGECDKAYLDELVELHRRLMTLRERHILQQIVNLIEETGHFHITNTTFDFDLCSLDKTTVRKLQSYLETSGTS
UCH37 DUB inh: inhibitors of human UCH37 deubiquitinase, primary screen, biochemical, Ub-AMC cleavage, fluorescence | Ubiquitin carboxyl-terminal hydrolase isozyme L5 (Homo sapiens), Q9Y5K5 | purified proteasome/UCH37 | hit rate 0.33% among 330,000 | inhibition, % (test concentration not listed);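 active = mean of two replicates above 20%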;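 note: 0% = compound-free wells with enzyme and 100% = wells lacking proteasome; stock transfer was 100 nL into about 20 µL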
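Material: Human UCH37 enzyme supplied as purified proteasome complex | Schedule: 30 min preincubation with enzyme, 25 min cleavage at room temperature | Detection: AMC fluorescence 355/460 nm | Measure: % inhibition of Ub-AMC cleavage fluorescence | Controls: Wells without proteasome as full block, compound-free enzyme plus substrate as uninhibited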
Beta cell apopt: inhibitors of cytokine-induced beta cell apoptosis, primary screen, luminescence; INS-1E cytokine-induced death, ATP luminescence, 48 h; percent of positive-control rescue, neutral wells zero; protection from apoptosis, % (concentration not given with the values); hit rate 0.8% among 300,000; AID 435005, 2010;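 active = all replicates at 75% or more, or half of them and the mean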;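 note: 0% = cytokine-treated negative control wells and 100% = positive control rescue; higher means more ATP so stronger rescue from cytokine killing; wells of about 40 µL received 100 nL stock; the first replicate is given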
Bfl-1 A1 inh: caspase 3/7 activation in MEF A1-2A-BIM cells, primary screen, A1 inhibitor project, cell-based, luminescence, HTS; caspase activation, % (no concentration beside the values); Caspase-Glo 3/7 luminescence, 3 h; percent of clofoctol response, vehicle zero; hit rate 0.066% among 330,000;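 active = over half of replicate activation scores above 10%, or exactly half above 10 with the replicate mean above 10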;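 note: wells of about 30 µL received 50 nL stock; many hits fall short of the cut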
E coli growth: E. coli growth inhibition, primary screen, OD600. Escherichia coli growth, 23 h; hits give low values. OD600 absorbance (no concentration beside the values). hit rate 0.21% among 330,000. AID 1053175, 2014;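 active = OD600 absorbance below the run mean of sample wells minus 3.6 SD, in any replicate, cut at about 0.56 in these data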;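 note: stock transfer was 300 nL into about 60 µL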
Ecoli rRNA inh OD600: further read-out of Ecoli rRNA inh, marked with its call; OD600 change, %; measured here: OD600 growth;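 optical density of the mix in the first replicate; 0 = DMSO median and -100 = no signal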
Ecoli rRNA inh RFP: recorded beside Ecoli rRNA inh, whose call it bears; RFP signal change, %; measured here: RFP humanized mutant strains;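 first replicate; 0 = DMSO median and -100 = no signal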
Numbers without * were called inactive; i = inactive; nt = not tested or not shown. These rows are one share of the data (hit frequency here may not be typical).

SMILES	FGF22 binding	UCH37 DUB inh	Bfl-1 A1 inh	Beta cell apopt	Ecoli rRNA inh OD600	MLL AF4-AF9 inh	E coli growth	Ecoli rRNA inh	T cruzi inh	Ecoli rRNA inh RFP
CC1(c2nnc(-c3ccccc3)o2)CC(c2cccnc2)=NO1 (stereo not given)	i	1.6	-0.4	-1.8	2.4	1.8	0.674	9.9	-18.2	-6.2
COc1ccc2[nH]c(=O)c(CN(C(=O)c3cccnc3)c3ccccc3C)cc2c1	i	-49.3	1.4	-1.8	-9.2	-27.1	0.688	0.1	2.5	1.7
Cc1nn(Cc2ccc(F)cc2Cl)c(C)c1[N+](=O)[O-]	i	4.3	0.3	-2.2	-1.2	0.4	0.69	2.7	-10.6	-3.1
CC(C)[C@H](NC(=O)N1CC(=O)Nc2ccccc21)C(=O)N1CCC[C@H]1C(=O)O	i	2.6	-0.1	-7.4	nt	-1.9	0.732	nt	-19.2	nt
O=C(CSc1n[nH]c(-c2cccs2)n1)N1CCOCC1	i	1.9	1.4	0.2	7.0	2.5	0.719	12.8	nt	3.9
COc1ccc(NC(=O)CSc2ccc(-c3sc(C)nc3C)nn2)cc1OC	i	1.2	1.4	5.9	-15.7	-0.8	0.712	-10.2	8.3	3.2
Cc1sc(NC(=O)/C=C/c2ccco2)c(C(=O)OC(C)C)c1C	nt	1.9	0.8	-1.2	nt	nt	nt	nt	41.8	nt
CCOc1cc(N2CCOCC2)c(OCC)cc1NC(=O)COC(=O)CCOc1ccc(C(C)(C)C)cc1	i	0.6	-0.1	2.2	7.2	0.5	0.721	3.7	-2.4	0.5
COc1ccc(NC(=O)CN(C)CC(=O)Nc2ccccc2SC)cc1	nt	4.7	-0.2	-6.2	nt	nt	0.725	nt	-11.3	nt
O=C(O)c1cc2cc(Cl)cc(Cl)c2oc1=O	nt	1.7	0.8	-4.7	nt	-3.5	0.745	nt	-12.0	nt
NC(=O)CNC(=O)c1ccc(Cl)cc1	i	7.5	0.5	nt	6.5	-4.6	0.669	15.6	2.9	0.8
O=C(c1ccc2ccccc2c1)N1CCN(c2ccc(C(F)(F)F)cn2)CC1	nt	-1.1	0.9	-3.1	nt	nt	0.721	nt	-3.9	nt
COc1ccc(OCC(=O)Nc2ccc(N3CCCCC3)cc2)cc1	i	1.9	-0.8	-1.9	1.1	-2.0	0.709	1.9	23.2	2.7
COc1ccc(C)cc1Nc1n[n+](C)c(-c2c3ccccc3cc3ccccc23)s1	i	0.3	-2.8	-1.5	-9.9	3.6	nt	-12.3	29.5	24.3
Cc1ccc2oc(C(=O)N(C)CCC(O)c3ccccc3)c(C)c2c1 (stereo not given)	i	4.8	-0.3	nt	-11.7	-1.1	0.641	-5.3	-1.0	1.3
Cc1ccc(C(=O)N2CCCC2)cc1S(=O)(=O)N1CCOCC1	i	2.2	-0.5	-3.2	6.7	-4.5	0.706	4.2	2.5	-1.3
COc1ccc(C(=O)N2CC3(CC(c4cccc(NC(=O)COc5ccc(Cl)cc5)c4)=NO3)C[C@@H]2C(N)=O)cc1 (stereo not given in full)	i	2.7	1.2	-2.2	-10.1	-1.8	nt	-11.9	46.1	8.8
COc1cccc2cc(C(=O)Nc3cccnc3N3CCOCC3)c(=O)oc12	nt	5.0	1.0	2.9	nt	nt	0.714	nt	0.3	nt
CC(=O)Nc1ccc(NC(=O)CSc2ccc(-c3sc(C)nc3C)nn2)cc1	i	3.1	0.1	-0.8	-3.3	-1.6	0.727	-2.2	-9.6	-1.3
Cc1ccc(NC(=O)C2CCCO2)cc1[N+](=O)[O-] (stereo not given)	i	0.3	2.0	-1.7	-1.5	-0.5	0.649	0.8	-7.1	-6.7
Cc1nnc(C)c2c(C)n(C(c3ccccc3)c3ccccc3)c(C)c12	i	-46.5	0.8	-4.0	1.8	30.2*	0.696	-9.3	59.1*	2.8
COC(=O)C1C(c2ccccc2)C=CC(c2ccccc2)C1C(=O)O (stereo not given)	i	-0.1	-0.3	1.0	1.8	4.3	0.714	5.8	-2.1	-0.3
COc1cc(C(C)=O)ccc1OCC(=O)NCCCn1nc(C)cc1C	i	-0.6	0.7	0.0	-4.4	3.0	0.639	4.2	nt	-0.6
COc1cccc(NC(=O)COc2ccc(S(=O)(=O)NC(C)C)cc2)c1	nt	1.6	0.4	1.5	nt	nt	0.785	nt	nt	nt
O=C1OC[C@@H]2CCCN2C(=O)[C@H](CC(=O)N(CCO)Cc2ccccc2)C/C=C\CC[C@@H]1Cc1ccc(F)cc1	i	1.0	-0.8	5.4	-78.1	5.3	nt	-53.1	nt	-26.0
CCOc1ccc(N2CC(C(=O)Nc3ccccc3N3CCCC3)CC2=O)cc1 (stereo not given)	i	nt	-0.2	-2.0	-3.6	0.0	nt	-12.1	-2.4	0.7
Cc1ccc(C(=O)Nc2nc(C)c(C(=O)Nc3ccc4c(c3)CCC4)s2)cc1	i	1.9	-2.2	13.9	-23.8*	-2.1	0.703	-29.9*	-26.6	2.0*
COc1ccc(/C=C/CN2CCC(n3nccc3NC(=O)C3CCCC3)CC2)cc1	i	1.7	-0.3	-0.7	6.0	3.5	0.682	8.1	31.8	3.1
O=C(O)C1CC(=O)N(C2CCCCCC2)C1 (stereo not given)	nt	4.3	-0.9	-3.4	nt	nt	0.801	nt	nt	nt
Cc1nnc(SCC(=O)c2ccc(S(=O)(=O)N3CCOCC3)cc2)n1-c1ccccc1	nt	2.4	-0.6	-12.3	nt	nt	0.671	nt	-10.7	nt
COc1ccc(-c2nnn(CC(=O)N(CC(=O)NCCC(C)C)c3ccccc3)n2)cc1OC	nt	2.0	-0.2	-0.9	nt	nt	0.686	nt	-15.1	nt
Cc1cc(C)cc(NC(=O)CSc2nnc(-c3ccncc3)o2)c1	i	2.3	0.2	-6.2	1.5	1.8	0.674	2.1	2.1	-2.0
CCOC(=O)c1noc(C)c1C(=O)Nc1nc(C)cc(C)n1	i	0.6	-0.5	-2.7	11.6	-8.9	0.68	8.7	5.4	1.9
O=c1c(Cc2c(F)cccc2Cl)c(O)ccn1C1CC1	i	-1.7	0.0	-5.2	-12.7*	-3.7	0.661	-31.0*	2.4	-4.6*
CCOC(=O)N1CCN(C(=O)CN(Cc2ccccc2)S(C)(=O)=O)CC1	nt	2.3	0.0	-1.2	nt	nt	0.694	nt	5.0	nt
CN(C)S(=O)(=O)c1ccc(N2CCCC2)c(C(=O)N2CCN(S(=O)(=O)c3ccccc3F)CC2)c1	i	2.1	-0.2	2.1	-4.5	0.5	0.652	2.4	21.3	-1.7
CN(CCC#N)C(=O)COC(=O)c1ccccc1OCc1ccccc1Cl	nt	0.6	-0.4	nt	-31.9	-17.1	0.696	-24.4	-12.9	-3.1
CCNC(=O)N(C)C[C@H]1N[C@@](CC)(C(=O)OC)[C@H]2C(=O)N(C)C(=O)[C@@H]12	i	1.8	-0.9	-1.1	6.4	-3.1	0.679	3.0	nt	-4.7
CC(=O)OCC=C1CCC2C3CCC4=CC(=O)CCC4(C)C3C(O)CC12C (stereo not given)	nt	3.3	nt	nt	-74.2	-0.4	0.696	-54.8	nt	-17.3
O=C(COC(=O)/C=C/c1ccc([N+](=O)[O-])cc1)NCc1cccs1	i	2.2	0.3	-5.6	5.9	1.1	0.656	7.8	nt	-4.7
COC(=O)c1cccc(N2CCCC2=O)c1	i	6.9	0.2	-0.2	-0.5	-0.4	0.64	3.6	-0.1	2.2
COc1ccc(-c2cn3c(n2)CCC3)cc1	nt	1.6	-3.2	-0.8	7.5	nt	0.716	-1.3	-21.9	-4.7
Cc1cc(C(=O)OCC(=O)NC2CCCCC2C)c2ccccc2n1 (stereo not given)	i	4.2	-0.7	-3.6	22.4	-0.3	0.709	18.2	nt	3.4
CC(=O)OC1COC(N2CCc3ccccc32)C(OC(C)=O)C1OC(C)=O (stereo not given)	i	2.6	-0.9	0.0	-3.7	3.2	0.686	5.5	-23.3	-1.4
COc1cc(OC)cc(C(=O)NCc2n[nH]c(=S)n2-c2ccccc2)c1	nt	3.0	0.2	-7.9	nt	nt	0.682	nt	-8.5	nt
CC(=O)NCCC(=O)Nc1cc(F)ccc1C	nt	0.2	0.1	-2.1	nt	nt	0.683	nt	-12.2	nt
COc1ccc(N2CCN(C(=O)c3ccc(NS(=O)(=O)c4ccccc4)cc3)CC2)cc1	nt	2.5	-0.8	1.7	nt	nt	0.736	nt	-1.5	nt
N#Cc1c(N(CCO)CCO)nc(N)c2c(N)nc3c(c12)CC(=O)N3CC1CCCO1 (stereo not given)	i	-177.5	-1.1	1.7	-0.7	1.2	0.661	14.6	-2.0	5.3
CCOC(=O)C1=C(CSc2nc(C)cc(C)c2C#N)OC(N)=C(C#N)C1c1ccccc1 (stereo not given)	nt	5.4	-0.2	nt	nt	nt	0.75	nt	-6.0	nt
O=C(CCn1ccc([N+](=O)[O-])n1)Nc1nccs1	i	3.3	0.7	3.0	2.8	-2.1	0.673	14.1	5.4	-4.7

(listing goes on)
SMILES	FGF22 binding	UCH37 DUB inh	Bfl-1 A1 inh	Beta cell apopt	Ecoli rRNA inh OD600	MLL AF4-AF9 inh	E coli growth	Ecoli rRNA inh	T cruzi inh	Ecoli rRNA inh RFP
COc1ccccc1CN1CCNC(=O)C1CC(=O)O (stereo not given)	i	0.2	0.1	-6.0	13.2	-1.3	0.712	16.6	-1.8	2.2
CCCC1=C(C(=O)OCC)C(/C=C/c2ccccc2)n2ncnc2N1 (stereo not given)	i	1.6	0.2	-5.0	16.6	7.3	0.751	15.1	-8.6	-10.9
CCc1cc(C(=O)N2CCOCC2)c(NC2=NS(=O)(=O)c3ccccc32)s1	nt	3.0	0.8	0.3	nt	nt	0.736	nt	-2.4	nt
CC(=O)N1CCN(c2nc(N)c(C#N)c(CC#N)c2C#N)CC1	i	2.9	-0.2	-10.1	-5.2	2.3	0.687	11.8	-10.4	6.7
Cc1cc(NCc2ccco2)n2ncnc2n1	i	3.7	-0.8	0.5	5.7	-0.7	0.735	7.1	-8.8	0.8
O=C(COC(=O)Cc1c(Cl)cccc1Cl)NCC1CCCO1 (stereo not given)	i	3.5	0.6	2.5	7.5	-0.8	0.737	-2.2	-5.6	8.5
